Assay outcomes deposited in PubChem BioAssay by several laboratories.
Mtb hypoxia rep = inhibitors of hypoxia-regulated fluorescent reporter in Mycobacterium tuberculosis; 300,000 tested, 0.1% active; M. tuberculosis hypoxia-regulated fluorescent reporter, fluorescence; fluorescence inhibition, % (concentration not given with the values);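 active = 35 to 45% if threefold the growth effect, above 45% if 1.5-fold the growth effect; inactive = the rest, general growth blockers included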;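 also: wells of about 50 µL received 100 nL stock; 0% = vehicle wells and 100% = reference inhibitor wells; whole bacteria with a GFP reporter of the hypoxia response; strong numbers were not always called active; many hits fall short of the cut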
PrP UTR inh = inhibition of PrP 5' UTR reporter expression; 340,000 tested, 0.35% active; inhibition, % (no concentration beside the values); cell-based PrP 5' UTR mRNA reporter, plate reader;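 active = every replicate at 50% or more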;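 also: 0 = median of the neutral control wells; tested in H4 reporter cells; numbers are from one replicate; inactives centre near -14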
RN4220 kill = S. aureus RN4220 growth inhibition; 330,000 tested, 0.33% active; inhibition, % (concentration not given with the values); AID 1259311; OD600, 16 h;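 active = z-score of -3 or lower and OD600 up to 0.18 on both plates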;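 also: plate controls were untreated cells for no effect and reference antibiotic for full effect; stock transfer was 100 nL into about 80 µL; one replicate is shown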
Autofluor counter = flagged as autofluorescent in microsphere protease counterscreen | fluorescence intensity (test concentration not listed) | 360,000 tested, 3.1% active | compound autofluorescence counterscreen, microsphere flow cytometry; active compounds read high;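 active = at least 3 SD above the mean of all compounds, about 16000 in these data; inconclusive = too few beads counted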;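 also: 100 nL of 1 mM stock went into each well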
BJeLR viability = kills HRASV12-expressing BJeLR cells; BJeLR (HRASV12) viability, CellTiter-Glo ATP luminescence, 48 h; reference of the scale not given here; inhibition, % (test concentration not listed); 300,000 tested, 0.17% active;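 active = replicate mean above 50%; inconclusive = above 50% but judged a plate artefact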;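 also: 50 nL library stock added to about 25 µL; numbers are from one replicate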
ugtP null kill = kills S. aureus RN4220 lacking UgtP. AID 1259309. growth inhibition, % (no concentration beside the values). S. aureus RN4220 ugtP deletion, OD600 growth, 16 h; some inactives read as strong as hits. 330,000 tested, 0.54% active;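 active = z-score under -3 and OD600 up to 0.15 on both plates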;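 also: plate controls were untreated wells for no effect and antibiotic for full effect; wells of about 80 µL received 100 nL stock; the first replicate is given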
Mtb hypoxia rep growth = second read-out of Mtb hypoxia rep, no call of its own (marks repeat the call); growth inhibition, %; measured here: M. tuberculosis growth (absorbance);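 0% = vehicle and 100% = reference antibiotic; read after six days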
Numbers without * were called inactive; ? = inconclusive; nt = no result given; & = joins results of further samples.

compound,Mtb hypoxia rep growth,Mtb hypoxia rep,BJeLR viability,Autofluor counter,PrP UTR inh,RN4220 kill,ugtP null kill
Cc1ccc(-c2nc(C(=O)NCCCN(C)C)cc3c2[nH]c2ccccc23)cc1,-2,10,0,4450,nt,2.0,-6
O=C(C1CCN(S(=O)(=O)c2ccc(Cl)cc2)CC1)N1CCCCCCC1,-3,3,-3,6230,-4,1.5,1
c1ccc(CCCNc2ncccn2)cc1,8,8,-6,8875,-29,3.5,3
O=C(NCC1(N2CCOCC2)CCCCC1)c1cccc(S(=O)(=O)N2CCc3ccccc3C2)c1,4,11,3,4749,1,3.6,4
Cc1ncoc1C(=O)NC1CCCc2c1cnn2-c1ccc(C(C)(C)C)cc1 (configuration not stated),-1,6,17,5695,-12,-0.5,-6
COCCN(C(=O)c1cccc(N2C(=O)CCC2=O)c1)c1nc(-c2ccc([N+](=O)[O-])cc2)cs1,-9,-10,-2,6019,-16,-2.5,-9
Cc1nc(S(=O)(=O)c2ccc(Br)cc2)nc2c1CCC2,6,6,1,3422,-1,4.8,2
NC(=NOC(=O)Nc1ccccc1)c1ncc(C(F)(F)F)cc1Cl,-7,5,nt,nt,nt,5.7,-3
COc1ccc(CSc2nnc3[nH]c(=O)cc(N)n23)cc1,12,2,-2,3800,10,-1.6,0
COc1cccc(C2CC(c3cccs3)=NN2C(=O)c2ccco2)c1O (configuration not stated),-2,-6,-1,5627,-14,6.2,14
O=C(N(Cc1ccccc1)c1ccccn1)C12CC3CC(CC(C3)C1)C2,6,8,-1,?,-14,7.3,8
C=CC(=O)NC(NC(=O)C=C)c1ccc(Br)cc1,17,8,0,21256*,-13,8.0,-7
CCNC(=S)N=C(N)Nc1nc(C)c2cc(C)ccc2n1,7,0,nt,nt,nt,9.4,12
O=C(Nc1ccccc1N1CCOCC1)c1cc(-c2ccncc2)nc2ccccc12,12,8,17,3888,2,2.2,0
CCOC(=O)c1sc(NC(=O)CSc2nccc(C)n2)nc1C,5,-7,-4,2262,-3,-1.6,1
COC(=O)c1ccc(OC(=O)c2ccc(OC)c(OC)c2)c(OC)c1,7,12,-5,2826,-1,5.8,6
CNC(=O)c1ccsc1NC(=O)CCS(=O)(=O)c1ccccc1,6,9,-3,4122,-14,3.3,6
O=C(COC(=O)/C=C/c1nc2ccccc2s1)Nc1cccc(Cl)c1Cl,nt,nt,-10,2460,1,nt,nt
Cc1cccc(N2CCN(C(=O)Cc3ccccc3[N+](=O)[O-])CC2)c1C,2,14,-2,2976,-25,1.2,7
CN1C(=O)SC(=Cc2ccccc2OCc2ccc(C(=O)O)cc2)C1=O,-1,3,nt,nt,nt,21,8
CC(=O)c1c(C)[nH]c(C(=O)Nc2cc(C)ccc2C)c1C,nt,nt,-8,5803,-18,-1.2,0
Cc1c(OCC(F)(F)F)ccnc1CS(=O)c1nc2ccccc2[nH]1 (configuration not stated),nt,nt,3,4229,-22&-37,2.1,-1
Cc1ccc(NC(=O)C(CC(C)C)NC(N)=O)cc1Cl (configuration not stated),5,11,2,2250,-22,2.7,2
c1ccc2oc(CCc3nc4ccccc4o3)nc2c1,4,12,7,3246,-64,3.6,0
O=C(Nc1ccc2c(c1)OCO2)C1CCN(C(=O)CSc2ncnc3ccccc23)CC1,16,4,-6,?,-14,9.6,-8
CCCCC(C)=NNC(=O)NC1CCCCC1,11,6,nt,nt,nt,2.8,1
COC(=O)[C@@H]1C[C@@]2(O)[C@H](O)[C@H](O)[C@H](O)C[C@H]2N1Cc1ccc(-c2ccccc2)cc1,nt,nt,5,4141,-24,nt,nt
Cc1cccc(N2CC(C(=O)NCC3COc4ccccc4O3)CC2=O)c1C (configuration not stated),6,9,nt,5431,nt,2.0,2
O=C1CCC(=O)N1c1ccc(-c2nc3sc4c(c3c(=O)o2)CCC4)cc1,2,24,11,4885,-13,1.3,7
CC1CCCN(C(=O)c2ccc3c(c2)OCCO3)C1 (configuration not stated),19,17,nt,3685,-19,4.0,4
C=CCn1c(O)c(/C(C)=N/N2CCCCC2)c(=O)[nH]c1=O,2,8,7,?,-21,1.6,9
Cc1ccccc1-c1cc2c(nn1)-c1ccccc1C2=O,20,0,0,2274,-42,17,-3
CC1CCN(c2c(NCc3ccc(C(=O)NCc4ccccc4)cc3)c(=O)c2=O)CC1,2,3,-3,4641,1,2.7,10
CCn1c(COc2ccccc2)nnc1SCC(=O)NC1CCCCC1,-1,-3,-7,3216,-8,-7.7,7
C=CCn1c(COc2ccccc2OC)nc2ccccc21,-3,5,-4,nt,13,4.1,6
CC(=O)NCCOC(=O)Nc1ccncc1,7,3,-1,20618*,-30,3.3,6
O=C(OC1CCCCC1=O)c1cccc(S(=O)(=O)N2CCOCC2)c1 (configuration not stated),-7,13,5,7319,-28,1.8,11
Cc1sc2nc(COC(=O)c3ccc(Cl)c(N)c3)[nH]c(=O)c2c1C,2,-4,-5,4517,-3,1.5,-2
CN1C2CCC1CC(OC(=O)c1ccc(Cl)cc1)C2 (configuration not stated),nt,nt,-3,2777,-15&-18,-0.7,-4
Cc1cccc(NC(=S)N2CCC(c3nc4ccccc4o3)CC2)c1C,-3,-1,1,10398,-15,4.3,10
COC(=O)Cn1cnc2c(C#N)c3n(c2c1=O)CCCCC3,-2,-1,1,23066*,-23,1.7,9
CCOc1ccc(NC(=O)CCNC(=O)Cn2cnc3ccccc3c2=O)cc1,-2,-1,-5,4396,-8,2.9,3
CC(C)[C@@H](C(=O)NC1CCN(Cc2ccccc2)CC1)N1C(=O)N2CCc3c([nH]c4ccccc34)[C@@]2(C)C1=O,nt,nt,-2,6544,-11,-1.7,10
CCC(C)NS(=O)(=O)c1ccc(OCC(=O)NCc2ccc(OC)cc2)cc1 (configuration not stated),5,-7,-3,4555,-15,8.4,2
O=C(CCC(=O)Nc1cccnc1)Nc1cccnc1,6,-2,-4,5985,-14,3.8,9
COc1ccc(OC)c2c1cc(C(=O)N[C@@H](Cc1ccccc1)C(=O)O)n2C,0,-4,-3,2993,-10,5.7,14
O=C(N/N=C/c1cc(Br)c(O)c(Br)c1O)c1cccnc1,nt,nt,-3,3631,-19,nt,nt
CCOC(=O)c1ccc(NC(=O)c2ccc(NC(=O)C3CCCO3)cc2)cc1 (configuration not stated),-8,6,-2,3423,-9,3.2,3
COc1cccc(N2CCN(CC(=O)Nc3nc(C)c(C(=O)N(C)C)s3)CC2)c1,-4,0,0,3593,3,1.8,3
CCc1cccc(NC(=O)CN(c2ccc(OC)cc2)S(=O)(=O)c2c(C)n[nH]c2C)c1,7,12,1,15847,-18,7.6,8
CC1CC2(NC(=O)NC2=O)C(C)CN1C (configuration not stated),6,14,5,2483,-11,-12,-8
COc1ccc2c(ccn2S(=O)(=O)c2ccccc2)c1,-1,7,-4,3357,-19,4.0,-6
CC(C)OC(=O)c1ccc(N2C(=O)C3CC=CCC3C2=O)cc1 (configuration not stated),1,-10,-1,4405,-20,-2.6,-4
Cc1nn(-c2ccccc2)c2c1CC1(C(=O)N(C)C(=O)N(C)C1=O)C1CCCCN21 (configuration not stated),nt,nt,5,4626,-6,-0.7,3
CC(CCc1oc2c(Br)cc(Br)cc2c1-c1ccc(C)o1)=NO,-1,-11,nt,nt,nt,-6.0,59
O=[N+]([O-])c1ccc(N=Cc2c(O)ccc3ccccc23)cc1,-2,15,-13,4773,-17,6.7,6
CC1=CC(C)(C)N2C(=O)C3(C(C#N)=C(N)OC4=C3C(=O)CC(C)(C)C4)c3c(C)c(C)cc1c32 (configuration not stated),-9,-17,-14,10716,nt,2.1,-2
C/C(=N\NC(=O)c1ccncc1)C12CC3CC(CC(C3)C1)C2,nt,nt,12,2136,-23,nt,nt
Cc1c(NC(=O)CSc2nc3ccccc3n2C)c(=O)n(-c2ccccc2)n1C,5,11,0,3319,-16,4.8,10
CCn1nc(C(=O)NNC(=O)c2ccccc2)c2ccccc2c1=O,5,2,nt,3950,-38,0.6,-13

The listing continues:
compound,Mtb hypoxia rep growth,Mtb hypoxia rep,BJeLR viability,Autofluor counter,PrP UTR inh,RN4220 kill,ugtP null kill
O=C(c1cc(Br)c(Br)s1)N1CCc2ccccc2C1,-3,-4,nt,3594,-25,5.7,5
CC(=O)Nc1cccc(NC(=O)Cc2nc(-c3ccccc3)sc2-c2ccc(C)cc2)c1,-2,-2,-1,2088,-5,-18,-21
Nc1sc(-c2ccccc2)c(Cc2ccccc2)c1C(=O)O,-1,-6,-1,2625,-28,6.0,-2
Cc1cc(C)c(NC(=O)CNC(=O)c2cc([N+](=O)[O-])ccc2N2CCOCC2)c(C)c1,3,6,1,5489,-25,2.1,11
O=C1N=C(N2CCc3ccccc3C2)S/C1=C\c1ccc(O)cc1,-2,4,-2,4527,-14,5.0,4
N#CCCN(C(=O)COc1ccc(Cl)cc1Cl)c1ccccc1,1,7,9,10152,14,5.1,-1
Clc1ccc(CCNc2ncnc3nc[nH]c23)cc1,0,7,nt,6322,-6,2.3,16
CN1CCN(c2ccccc2NC(=O)COc2ccc(Cl)cc2)CC1,-1,0,-11,6060,-13,5.0,-2
CCN1CCN(Cc2c(O)c(Cl)cc3c(C)cc(=O)oc23)CC1,1,-4,-6,5512,-20,3.3,1
O=C(CSc1ccccc1)N/N=C/c1ccccc1O,nt,nt,-7,4030,-17,nt,nt
COc1ccc2[nH]c3c(c2c1)CCN1C(=O)N([C@@H](C)C(=O)NCc2ccc(C)cc2)C(=O)[C@]31C,nt,nt,5,5758,-21,7.7,-8
CCCCN1CC(=O)N2C3c4cc(OC)ccc4OCC3C(C(=O)OCC)[C@]2(C)C1=O (some centres not stated),6,13,nt,nt,nt,7.9,2
CC(=O)c1sc(NC(=O)CCOc2ccccc2)nc1C,-11,-4,10,2726,-19,11,-1
COc1ccc(CNS(=O)(=O)c2ccc3c(c2)NC(=O)CS3)cc1,8,8,10,6070,-29,7.0,18
COc1ccc(Nc2ncnc3c2cnn3-c2ccccc2)cc1OC,0,7,-2,5953,-21,4.2,-4
O=c1ccnc(Nc2ccc3c(c2)OCCO3)[nH]1,-3,4,-2,5010,-11,5.9,8
CCC(C)C1CN=C(N)N1CCc1cccc(F)c1 (configuration not stated),7,8,nt,nt,nt,4.4,-13
Cc1cc2ncn(C3CC(=O)N(Cc4ccccc4)C3=O)c2cc1C (configuration not stated),3,3,-17,8036,-24,3.9,3
O=C(Nc1ccc(N2CCOCC2)c(Cl)c1)c1cccc(F)c1,nt,nt,nt,2221,-68,-2.0,8
Cc1ccc(C=Nn2c(-c3ccco3)n[nH]c2=S)s1,3,9,nt,nt,nt,12,2
COC(=O)C1CCN(Cc2cc(=O)oc3cc(OC)ccc23)CC1,4,5,3,2698,-21,-14,3
CCOc1cc(NC(=S)NCC2CCCO2)c(OCC)cc1NC(=O)c1ccccc1F (configuration not stated),8,0,-2,4608,-6,0.7,16
Cc1ccc(-c2noc(-c3cccs3)n2)cc1,8,10,-5,10023,-75,2.2,49
COC(=O)[C@@H](c1ccccc1)C1CCCCN1 (some centres not stated),nt,nt,nt,4702,16,1.7,14
COc1ccc(Cc2nnc(CCc3ccccc3)s2)cc1,4,3,-1,3925,-2,1.8,4
Cc1cnc(NC(=O)CSc2nnc(Cc3ccccc3)n2C)s1,5,3,1,21335*,-18,4.5,2
C=CCNC(=S)NCc1ccccc1,4,-5,-13,5127,-17,2.9,4

Copied from the list:
For Autofluor counter, CCOc1cc(NC(=S)NCC2CCCO2)c(OCC)cc1NC(=O)c1ccccc1F (configuration not stated) shows 4608
For ugtP null kill, COC(=O)[C@@H](c1ccccc1)C1CCCCN1 (some centres not stated) shows 14
For PrP UTR inh, COC(=O)C1CCN(Cc2cc(=O)oc3cc(OC)ccc23)CC1 shows -21
